IEC-6 cytotox: cytotoxicity in IEC-6 intestinal epithelial cells, primary screen, cytotoxicity control for KLF5 inhibitor project, cell-based, luminescence. hit rate 0.78% among 290,000. IEC-6 cytotoxicity, luminescence viability. inhibition, % at 5 µM. AID 1825, 2009; in the data active = inhibition above about 22%;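 note: 0% = plate median of test compound wells and 100% = cytotoxic reference compound wells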
aSyn 5UTR inh: MLPCN primary screen, SNCA 5' untranslated region | alpha-synuclein 5'UTR reporter, inhibitor activity | inhibition, % (tested at 7.5 µM) | hit rate 0.82% among 300,000; in the data active = inhibition above about 60%;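 note: H4 neuroglioblastoma cells stably carrying SNCA 5'UTR luciferase fusion; 0% = DMSO wells and 100% = positive control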
DYRK1A inh: rat Dyrk1A kinase inhibitors, primary screen, biochemical, single point, plate reader | inhibition, % at 12.5 µM | hit rate 0.43% among 310,000 | Dual specificity tyrosine-phosphorylation-regulated kinase 1A (Rattus norvegicus), Q63470 | ADP-Glo luminescence, NFATc1 peptide; in the data active = inhibition above about 50%;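 note: plate controls were vehicle with enzyme for no effect and no enzyme for full effect; many of its hits are not listed in these tables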
KLF5 inh: KLF5 expression inhibitors, primary screen, DLD-1 cells, luminescence; DLD-1 KLF5 promoter-luciferase reporter; inhibition, % at 5 µM; hit rate 0.23% among 290,000; AID 1700, 2009;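 active = inhibition above a per-plate limit of that plate's mean compound inhibition plus 3 SD, cut at about 60% in these data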;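 note: 0% = DMSO wells and 100% = LY294002 at 200 µM; higher means less KLF5 promoter-driven luciferase light; inactives centre near -14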
HSP90 inh: HSP90 inhibitors, primary screen, cell lysate, luminescence. Rabbit reticulocyte lysate, luciferase refolding luminescence, 3 h. inhibition, % at 5.6 µM. hit rate 0.91% among 290,000;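 active = inhibition above the screen-wide mean plus 3 SD, computed separately per campaign, cut at about 16% in these data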;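 note: 0% = DMSO wells and 100% = 60 µM geldanamycin wells; inhibitors lower the luminescence because luciferase stays unfolded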
Numbers without * were called inactive; i = inactive; x = not tested or not shown; & = joins results of further samples.

Key to letters: A = IEC-6 cytotox; B = aSyn 5UTR inh; C = DYRK1A inh; D = KLF5 inh; E = HSP90 inh
1	O=C(O)CCNC(=O)c1ccc(N=Nc2ccc(O)c(C(=O)O)c2)cc1
  A: x; B: -7; C: x; D: x; E: x
2	CC(C)(C)NC(=O)[C@@H]1CN(Cc2cccnc2)CCN1C[C@@H](O)C[C@@H](Cc1ccccc1)C(=O)N[C@H]1c2ccccc2C[C@H]1O
  A: x; B: -10; C: 13; D: x; E: x
3	O=C1CSC(=S)N1
  A: 2; B: 4; C: -1; D: -34; E: -6
4	CC[n+]1c(/C=C(\C)SC)sc2ccccc21
  A: 12; B: -4; C: 13; D: -28; E: 5
5	CC(C)NC[C@@H](O)COc1cccc2ccccc12
  A: x; B: 11; C: 0; D: x; E: x
6	O=c1[nH][nH]c(=O)n1-c1ccccc1
  A: -1; B: -13; C: -4; D: -15; E: -2
7	C(=N\Nc1nc2ccccc2[nH]1)/c1c[nH]c2ccccc12
  A: 12; B: -224; C: x; D: -40; E: -4
8	CN(C)CC/C=C1/c2ccccc2COc2ccccc21
  A: -1; B: 11; C: x; D: -7; E: 7
9	CSc1nc(SCC(N)=O)c2c3c(sc2n1)CN(C)CC3
  A: -1; B: 5; C: 85*; D: -40; E: -2
10	C1CCC2=NCCCN2CC1
  A: 7; B: -4; C: -1; D: 17; E: 2
11	O=C1CCc2ccc(OCCCCN3CCN(c4cccc(Cl)c4Cl)CC3)cc2N1
  A: -2; B: 24; C: 8; D: 0; E: 7
12	Cc1ccc(S(=O)(=O)Cc2sc3ccccc3[n+]2C)cc1
  A: -7; B: -27; C: -1; D: -36; E: 0
13	CC(C)NCC(O)c1ccc(O)c(O)c1 (stereo unspecified)
  A: 3; B: -6; C: 12; D: -36; E: -5
14	CO[C@H]1/C=C/O[C@@]2(C)Oc3c(C)c(O)c4c(O)c(c(C=NN5CCN(C)CC5)c(O)c4c3C2=O)NC(=O)/C(C)=C\C=C\[C@H](C)[C@H](O)[C@@H](C)[C@@H](O)[C@@H](C)[C@H](OC(C)=O)[C@@H]1C
  A: x; B: x; C: 4; D: x; E: x
15	O=C(O)CC(O)(CC(=O)O)C(=O)O
  A: x; B: 2; C: 18; D: x; E: x
16	CN1C(=O)CSC1=S
  A: 6; B: -6; C: -1; D: -28; E: -3
17	CCc1cccc(N(C)C(N)=Nc2cccc3ccccc23)c1
  A: x; B: -12; C: -8; D: x; E: x
18	CC(C)NC[C@H](O)COc1cccc2ccccc12
  A: x; B: 5; C: 8; D: x; E: x
19	Nc1ncn([C@H]2C[C@H](O)[C@@H](CO)O2)c(=O)n1
  A: x; B: i; C: 6; D: x; E: x
20	CCN(CC)CCNC(=O)COc1ccc(OC)cc1
  A: -1; B: 23; C: 6&4; D: -13; E: -3
21	CCCCc1nc(Cl)c(CO)n1Cc1ccc(-c2ccccc2-c2nnn[nH]2)cc1
  A: x; B: -9; C: -4; D: x; E: x
22	CN(C)CCC(c1ccc(Cl)cc1)c1ccccn1 (stereo unspecified)
  A: 5&1; B: -9&0; C: 3&8; D: -14&-1; E: -1&0
23	Cc1onc(-c2c(Cl)cccc2Cl)c1C(=O)NC1C(=O)N2C1SC(C)(C)C2C(=O)O (stereo unspecified)
  A: 2; B: 17; C: -2; D: -8; E: -5

Some of the entries so far, with bars between the fields:
cpd | SMILES | IEC-6 cytotox | aSyn 5UTR inh | DYRK1A inh | KLF5 inh | HSP90 inh
16 | CN1C(=O)CSC1=S | 6 | -6 | -1 | -28 | -3
17 | CCc1cccc(N(C)C(N)=Nc2cccc3ccccc23)c1 | x | -12 | -8 | x | x
18 | CC(C)NC[C@H](O)COc1cccc2ccccc12 | x | 5 | 8 | x | x
19 | Nc1ncn([C@H]2C[C@H](O)[C@@H](CO)O2)c(=O)n1 | x | i | 6 | x | x
20 | CCN(CC)CCNC(=O)COc1ccc(OC)cc1 | -1 | 23 | 6&4 | -13 | -3

Ordered by value in DYRK1A inh (ascending): three from the list above.
item	molecule	DYRK1A inh
17	CCc1cccc(N(C)C(N)=Nc2cccc3ccccc23)c1	-8
21	CCCCc1nc(Cl)c(CO)n1Cc1ccc(-c2ccccc2-c2nnn[nH]2)cc1	-4
5	CC(C)NC[C@@H](O)COc1cccc2ccccc12	0

Some of the entries so far, with bars between the fields:
entry | structure | IEC-6 cytotox | aSyn 5UTR inh | DYRK1A inh | KLF5 inh | HSP90 inh
16 | CN1C(=O)CSC1=S | 6 | -6 | -1 | -28 | -3
17 | CCc1cccc(N(C)C(N)=Nc2cccc3ccccc23)c1 | x | -12 | -8 | x | x
18 | CC(C)NC[C@H](O)COc1cccc2ccccc12 | x | 5 | 8 | x | x

An excerpt (hit frequency here may not be typical).
